# Screens deposited in PubChem BioAssay by ICCB-Longwood Screening Facility, Harvard Medical School.
# HCMV UL50-53 inh: inhibitors of HCMV UL50-UL53 interaction, biochemical, HTRF | normalized percent inhibition | 190,000 compounds, 0.15% hits | inhibition, % (no concentration beside the values) | HCMV UL50-UL53 nuclear egress complex (human cytomegalovirus);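 active means both replicates at 50% or more, plus weaker picks with an unusually low signal ratio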;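 further: stock transfer was 100 nL into about 20 µL; 0% = negative control wells and 100% = wells with untagged competitor protein; inactives centre near -12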
# Sa growth 42C: S. aureus growth inhibition at 42 and 30 °C, primary screen, LtaS inhibitor project, RN4220, two temperatures; 170,000 compounds, 0.53% hits; relative growth, % (no concentration beside the values); AID 720641, 2013; OD600, 20 h, 42 °C; stronger effect = lower value;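 active means growth at 42 °C up to 50% and 20 or more points under that at 30 °C, or under 10% at both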;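 further: 300 nL library stock went into each well; scaled to the means of positive and negative controls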
# GIV-Gai inh: inhibitors of GIV peptide binding to Galpha-i3, primary screen, biochemical, fluorescence polarization, FITC-GIV GBA peptide, rat Galphai3; percent of control (FP), % (no concentration beside the values); AID 1224905, 2016; Guanine nucleotide-binding protein G(i) subunit alpha-3 (Rattus norvegicus), P08753; 210,000 compounds, 0.42% hits; 90 min; stronger effect = lower value; scaled: aluminum fluoride 0%, vehicle 100%;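 active means replicate mean at 85% of control or lower, very high polarization wells dropped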;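 further: wells of about 15 µL received 100 nL stock; the first replicate is given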
# Target sequence (P08753 whole entry, looked up): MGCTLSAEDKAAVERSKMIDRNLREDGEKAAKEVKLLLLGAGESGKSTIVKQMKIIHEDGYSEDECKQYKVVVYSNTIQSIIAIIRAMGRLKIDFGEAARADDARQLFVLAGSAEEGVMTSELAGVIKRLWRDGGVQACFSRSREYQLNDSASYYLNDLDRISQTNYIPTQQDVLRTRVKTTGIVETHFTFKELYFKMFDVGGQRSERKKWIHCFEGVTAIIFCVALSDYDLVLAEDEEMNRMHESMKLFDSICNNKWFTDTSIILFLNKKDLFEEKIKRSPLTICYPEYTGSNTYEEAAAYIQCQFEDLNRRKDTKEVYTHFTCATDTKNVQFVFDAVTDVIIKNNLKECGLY
# Sa growth 42C second temp: recorded beside Sa growth 42C, whose call it bears; relative growth, %; measured here: growth at 30 °C;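 optical density after 20 h as mean of two plates; 100% = untreated growth and lower means inhibition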
# * = called active by the depositor; nt = no result given.
SMILES,HCMV UL50-53 inh,Sa growth 42C,Sa growth 42C second temp,GIV-Gai inh
CC(=O)c1cccc(NC(=O)CCc2c(C)nc3c(-c4ccc(F)cc4)c(C)nn3c2C)c1,-5.1,94.0,97.2,102.3
O=C1C2C3C=CC(C3)C2C(=O)N1CNc1ccc(O)cc1 (stereo unspecified),nt,107.1,71.6,107.2
O=c1oc(COc2ccc(Cl)cc2Cl)nc2ccccc12,4.8,122.9,96.7,107.1
COc1ccc(-c2noc(N3CCCC(C(=O)NCCCN4CCC(C)CC4)C3)n2)cc1 (stereo unspecified),nt,94.3,85.2,101.4
O=C(NCCCN1CCCC1=O)c1nc(Nc2ccc(F)cc2)c2ccccc2n1,-15.4,nt,nt,105.9
CCOC(=O)C(C)Sc1nc(N)nc(SC)c1C#N (stereo unspecified),-7.3,91.3,80.0,nt
Cc1cc(C)c2c(-n3cccc3)nn(CCCC(=O)NC3CCCCCC3)c2n1,-22.9,104.7,95.1,102.0
COc1ccc(N2CC(NC(=O)c3ccc4c(c3)OCO4)CC2=O)cc1 (stereo unspecified),nt,98.5,96.5,95.2
CC1CN(CCc2ccccc2)c2nc3c(c(=O)n(CC(N)=O)c(=O)n3C)n2C1 (stereo unspecified),nt,86.2,95.6,98.0
COc1ccc(N2CC(=O)N(/N=C/c3ccccc3C(=O)O)C2=S)cc1,-20.7,88.7,88.2,nt
CN1/C(=C\C(=O)NC2CCCCC2)C(C)(C)c2ccccc21,-27.3,96.0,64.9,nt
Cc1cc(C)c(CSc2nnc(C)n3c2cc2occc23)c(C)c1,nt,66.2,63.8,105.8
N/C(=N\OCC(=O)N1CCOCC1)c1nonc1N,-16.4,101.4,106.1,101.1
Cc1nn(-c2ccccc2)c(N2CCCCC2)c1/C=N/NC(=O)c1ccncc1,-28.9,79.5,80.4,nt
Cc1cc2[nH]c(=O)c(=O)[nH]c2cc1S(=O)(=O)Nc1ccc(OC(F)(F)F)cc1,nt,106.4,88.2,103.9
COc1ccc(N2CCN(C(=O)c3nc(-c4ccc(Cl)cc4)n4c3CCCCC4)CC2)cc1,nt,143.0,93.5,105.5
Cc1ccc2oc(-c3ccc(C)c(NC(=O)c4ccc(C(C)(C)C)cc4)c3)nc2c1,6.5,97.3,101.9,107.5
COC(=O)C1=C(C)NC2=C(C(=O)CCC2)C1c1c(F)cccc1F (stereo unspecified),-31.9,98.9,92.2,nt
COc1ccc(NC(=O)CN(c2cc(C)cc(C)c2)S(=O)(=O)c2c(C)noc2C)cc1Cl,-29.1,94.4,86.2,108.7
CC(=O)Nc1ccc(-c2nc3cc(Cl)ccc3o2)cc1,-10.4,92.8,72.8,106.6
Cc1cc(C)c2ccc(O)cc2n1,-46.6,75.5,93.1,nt
CCc1cc(C(=O)c2ccc(OC)cc2)c(NC(=O)CN2CCN(C)CC2)s1,-37.9,99.4,87.5,105.1
CN(C)C(=O)CSc1nc2scc(-c3ccccc3)c2c(=O)[nH]1,-24.4,86.3,69.1,nt
CC(=O)Nc1cccc(N2C(=O)CCC2=O)c1,-7.5,107.3,87.6,103.0
C=CCSc1nc(N)c(C(=O)Nc2ccccc2)cc1C(N)=O,nt,101.4,91.0,104.6
CN(C)S(=O)(=O)c1ccc2c(c1)N(CC(=O)N1CCC(C(N)=O)CC1)CCS2,nt,111.2,88.3,103.8
COC(=O)c1cc(C(=O)OC)c2ccccc2n1,-61.3,89.9,77.5,108.4
Cc1ccc(NC(=O)c2nnc(SCC(=O)NCCCN3CCc4ccccc4C3)s2)cc1,-16.5,nt,nt,98.1
CCSCCOC(=O)C1=C(C)NC2=C(C(=O)CC(c3ccccc3)C2)C1c1ccc(N(C)C)cc1 (stereo unspecified),-20.6,nt,nt,96.9
Cc1ccc(C2CC(c3ccc(Br)cc3)=NN2C(=O)CCC(=O)O)cc1 (stereo unspecified),-16.7,nt,nt,104.6

# Part of the list above, set out differently.
# Each structure is followed by: HCMV UL50-53 inh, Sa growth 42C, Sa growth 42C second temp, GIV-Gai inh
CC(=O)Nc1cccc(N2C(=O)CCC2=O)c1
  -7.5, 107.3, 87.6, 103.0
Cc1ccc(NC(=O)c2nnc(SCC(=O)NCCCN3CCc4ccccc4C3)s2)cc1
  -16.5, nt, nt, 98.1
Cc1cc(C)c2ccc(O)cc2n1
  -46.6, 75.5, 93.1, nt
C=CCSc1nc(N)c(C(=O)Nc2ccccc2)cc1C(N)=O
  nt, 101.4, 91.0, 104.6

# (listing goes on)
SMILES,HCMV UL50-53 inh,Sa growth 42C,Sa growth 42C second temp,GIV-Gai inh
CCCc1c(O)nc(SCCC(=O)O)[nH]c1=O,-25.3,97.6,83.4,104.5
CCCCN1C(=O)S/C(=C/c2ccc(OC)cc2)C1=O,-30.9,94.9,84.5,99.6
COc1ccccc1OCCNc1ncnc2sccc12,-5.1,89.1,95.0,nt
COc1ccc(S(=O)(=O)Nc2c(O)c3ccccc3oc2=O)cc1OC,nt,74.2,82.0,103.6
COc1ccc(CNS(=O)(=O)c2cc3c(cc2C)n(C)c(=O)c(=O)n3C)cc1,nt,106.7,87.5,97.7
C=CCOc1ccc(/C=C2\C(=O)N(c3ccc(Cl)c(C(=O)O)c3)N=C2C)cc1OC,14.5,85.2,99.9,nt
CC1CCN(C(=O)c2cnn3ccccc23)CC1,3.5,100.0,89.7,100.9
COc1ccc(-c2cc(C(F)(F)F)nc(NCc3ccccc3)n2)cc1OC,1.6,94.9,88.4,98.6
CC(C)(C)c1ccc(OCCCSC#N)cc1,-7.7,104.2,89.5,99.7
Fc1ccc2ncc3c(-c4ccccc4)n[nH]c3c2c1,nt,69.5,75.7,97.0
CC(C)(C)NC(=O)N1CCn2cccc2C1c1cccnc1 (stereo unspecified),-31.6,108.3,92.8,103.3
CCN1CCN(Cc2c(O)ccc3oc(C)c(C(=O)Nc4ccc(C)cc4C)c23)CC1,-3.1,106.5,89.8,101.1
COc1ccc(C2=NN(S(=O)(=O)c3ccc(C)cc3)C(c3ccccc3)C2)cc1OC (stereo unspecified),-16.5,nt,nt,98.9
C=CCN1CN(CC=C)CN(CC=C)C1,-63.0,86.7,69.5,100.6
Cn1nc(C(=O)Nc2ccc(F)c(Cl)c2)c2c1-c1ccccc1S(=O)(=O)C2,2.5,74.2,86.8,102.1
Cc1ccc(C)c(CN2C(=O)c3ccccc3S(=O)(=O)c3ccc(C(=O)NCCC4=CCCCC4)cc32)c1,-32.5,106.7,110.5,106.8
O=C(Nc1ccc(C(=O)OC2CCCCC2)cc1)c1ccncc1,-15.3,87.4,77.7,nt
NC(=S)Cc1ccc(-c2csnn2)cc1,3.7,95.3,93.2,104.0
Cc1cccc(Nc2nc3nonc3nc2N/N=C\c2cccs2)c1C,-49.4,102.2,75.2,105.0
COc1ccc(CNc2oc(COc3cccc(C)c3)nc2C#N)cc1,-0.3,103.0,99.1,103.2

# Limited to GIV-Gai inh, for 4 of the compounds above:
Molecule,GIV-Gai inh
COc1ccc(C2=NN(S(=O)(=O)c3ccc(C)cc3)C(c3ccccc3)C2)cc1OC (stereo unspecified),98.9
C=CCN1CN(CC=C)CN(CC=C)C1,100.6
Cn1nc(C(=O)Nc2ccc(F)c(Cl)c2)c2c1-c1ccccc1S(=O)(=O)C2,102.1
Cc1ccc(C)c(CN2C(=O)c3ccccc3S(=O)(=O)c3ccc(C(=O)NCCC4=CCCCC4)cc32)c1,106.8

# Additional compounds
SMILES,HCMV UL50-53 inh,Sa growth 42C,Sa growth 42C second temp,GIV-Gai inh
O=C1/C(=C/c2cccnc2)c2ccccc2N1c1ccccc1,-28.0,8.4*,-0.3*,nt
O=C(COc1ccc(F)cc1)Nc1ccccc1C(=O)OCc1cc(=O)n2ccsc2n1,nt,101.6,93.9,101.2
CC(C)CNc1oc(-c2ccc(S(=O)(=O)N3CCOCC3)cc2)nc1C#N,-42.7,nt,nt,100.1
N/C(Cc1cccc2ccccc12)=N\OC(=O)c1ccc(Br)o1,-16.9,98.0,79.0,110.4
COc1ccc(C(=O)Oc2ccc(C(c3c(C)[nH][nH]c3=O)c3c(C)[nH][nH]c3=O)cc2)cc1,-26.6,120.4,82.5,103.9
Clc1ccc(Cl)c(-c2ccc(CNCC3CCNCC3)o2)c1,-3.8,nt,nt,107.6
Cc1ccc(NC(=O)/C(C#N)=N/Nc2ccc(S(=O)(=O)Nc3ncccn3)cc2)cc1C,-29.7,84.3,83.9,nt
Cc1nnc(SCC(=O)c2ccc(F)cc2)o1,-1.1,88.8,102.4,105.2
CCn1c(CC(=O)Nc2ccccc2)n[nH]c1=S,-15.1,96.4,75.7,104.9
Cc1cc(Cl)ccc1NS(=O)(=O)C1CCS(=O)(=O)C1 (stereo unspecified),-11.1,nt,nt,103.7
CCC(C)NC(=O)CN1C(=O)C2CCCC2=Nc2ccccc21 (stereo unspecified),-11.8,nt,nt,104.6
CCOc1cc(N2CCOCC2)c(OCC)cc1NC(=O)CSc1ccccc1C(=O)O,-11.8,86.1,90.1,nt
O=C(C/C(=C1/CCc2ccccc2C1=O)c1ccccc1)c1ccccc1,-7.0,95.5,92.8,109.1
COc1ccc(-c2nc(CSCC(=O)N3CCC(Cc4ccccc4)CC3)c(C)o2)cc1OC,-5.0,nt,nt,106.2
CCc1nnc(C(=O)Nc2cccc(C(=O)NCc3cccnc3)c2)s1,-21.3,nt,nt,105.7
COc1cccc(C2=NN(S(C)(=O)=O)C(c3cn(-c4ccccc4)nc3-c3cccs3)C2)c1 (stereo unspecified),0.3,93.3,100.1,108.9
CCCn1c(=O)c2ccccc2n2c(SCC(=O)Nc3ccc(C)cc3)nnc12,-18.6,nt,nt,99.4
N#CNC1=NCN(CCCN2CCOCC2)CN1,-21.1,98.4,90.0,97.5
COc1ccc(-c2noc(COC(=O)c3cccc(OC(F)F)c3)n2)c(OC)c1,-14.1,79.2,85.2,nt
CC(=O)N1c2nc(-c3ccco3)nn2C2(CCCCC2)[C@@H]2CCCC[C@@H]21,5.2,102.7,95.1,97.2
C=CCc1nc(C)c(CC(=C)C)c(=O)[nH]1,-13.2,111.3,101.6,98.0
CCOc1ccc(-n2ccc3nc(C)c(C(=O)O)cc3c2=O)cc1,-38.3,87.6,89.7,108.6
O=c1ccc(-c2ccc(Cl)c(S(=O)(=O)N3CCCC3)c2)n[nH]1,-35.2,nt,nt,103.5
COC(=O)c1c(-c2snnc2C)n[nH]c1C,-28.2,126.0,84.7,102.0
CC1Cc2ccccc2N1C(=O)CN1CCN(c2ccc(C(F)(F)F)cn2)CC1 (stereo unspecified),0.9,74.1,47.3,nt
O=C(NCc1c(-n2cccc2)sc2c1CCCC2)NC12CC3CC(CC(C3)C1)C2,-25.7,88.0,83.1,103.2
COCCNC(=O)CSc1c(C)cnc2c1c(=O)n(C)c(=O)n2C,nt,144.5,85.5,106.4
Cc1cc(N2CCOCC2)n2nc(C(F)(F)F)c(-c3ccccc3Cl)c2n1,19.3,nt,nt,108.0
Cc1noc2c1C(c1cccc(F)c1)C1=C(CC(c3ccc(Cl)cc3)CC1=O)N2 (stereo unspecified),-13.0,nt,nt,105.9
CC(C)Sc1nn(C)c2nc3c(c(=O)n12)C(C)(C)Cc1ccccc1-3,-16.4,nt,nt,102.0
CCC(C(=O)NCc1ccco1)n1nc(C)c2c(C)n(-c3ccc(C)cc3)nc2c1=O (stereo unspecified),nt,93.9,85.0,98.4
CCn1c(=O)c(C)nc2cc(C(=O)O)ccc21,-31.9,81.9,91.5,nt
CCc1ccc(N2Cc3ccccc3C2)cc1,-30.3,81.2,83.5,103.9
COc1ccc2[nH]c3c(=O)n(CCc4ccc(Cl)cc4)cnc3c2c1,nt,100.5,81.9,98.4
O=C(c1nc2n(n1)C1(CCCCC1)[C@@H]1CCCC[C@@H]1N2C(=O)C1CCCCC1)N1CCOCC1,-21.0,nt,nt,100.0
O=C(Nc1ccc2ccccc2c1)c1ccccc1O,-16.4,96.8,75.7,nt
COc1ccc(-c2nc(S(=O)(=O)c3ccc(Cl)cc3)c(N3CCCCCC3)o2)cc1,-28.6,77.0,81.3,99.0
O=C(Nc1ccc(Cn2cnc(-c3nc(-c4cccc(F)c4)no3)c2)cc1)c1ccc2c(c1)OCO2,-19.2,nt,nt,104.4
CCc1oc2ccccc2c1CC1C(=O)N(C)c2ccccc21 (stereo unspecified),-18.8,nt,nt,105.0
Nc1c(S(=O)(=O)Cc2ccccc2)sc2nc3c(cc12)CCCC3,-1.3,97.2,56.6,101.5
O=C(CCc1nnc2ccc(N3CCCCC3)nn12)NCCc1c[nH]c2ccccc12,-36.7,99.4,62.8,102.5
CCCOc1ccc(CC2C(=O)Nc3ccc(Br)cc32)cc1 (stereo unspecified),10.7,96.8,70.4,101.8
CN(C)CCNC(=O)c1ccc(-n2c(-c3ccccc3)cc3c2CCCC3)cc1,-1.8,175.0,55.3,106.3
O=C1c2ccccc2C(=O)N1c1ccc(OC(F)(F)F)cc1,nt,72.8,82.8,107.2
COc1ccc(CCNC(=O)CSc2c3c(nc4cc(Cl)ccc24)CCCC3)c(OC)c1,nt,96.2,70.1,103.2
O=C(NC1=NCCS1)c1ccc2snnc2c1,-11.4,97.9,84.5,103.0
